PAD4 inh = inhibitors of human PAD4. recombinant PAD4, RCA probe fluorescence polarization. actives 0.41% (n = 330,000). AID 485272. inhibition, % at 6.36 µM;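 active = percent inhibition above a cutoff equal to the mean of all tested compounds plus 3 SD, cut at about 15% in these data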;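 note: 0% = PAD4 with RCA probe and DMSO and 100% = probe without PAD4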
PREPL inhibitor = inhibitors of human prolyl oligopeptidase-like enzyme PREPL; Q4J6C6; recombinant PREPL, fluorescence polarization activity-based probe; inhibition, % at 5.96 µM; actives 0.68% (n = 320,000); AID 2751; in the data active = inhibition above about 43%;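 note: 0% = enzyme with DMSO and 100% = wells lacking enzyme; many of its hits are not listed in these tables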
LYPLA1 inh = blocks human lysophospholipase 1, a PME1 counter-screen; O75608; recombinant LYPLA1, FP-Rh probe fluorescence polarization; inhibition, % at 5.9 µM; actives 0.16% (n = 320,000);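 active = inhibition above the mean of all tested compounds plus 3 SD, set per campaign, cut at about 14% in these data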;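 note: inhibitors block serine hydrolase probe labeling of LYPLA1 so polarization falls; 0% = enzyme with DMSO and 100% = wells lacking LYPLA1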
Target sequence (O75608 whole entry, looked up): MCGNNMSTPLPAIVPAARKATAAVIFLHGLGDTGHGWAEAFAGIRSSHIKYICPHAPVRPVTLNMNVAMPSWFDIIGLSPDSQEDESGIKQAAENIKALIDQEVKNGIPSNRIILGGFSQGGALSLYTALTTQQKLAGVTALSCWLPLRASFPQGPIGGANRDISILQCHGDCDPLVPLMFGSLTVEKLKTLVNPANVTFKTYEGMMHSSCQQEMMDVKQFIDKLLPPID
GSTO1 inh = GSTO1 inhibition, counter-screen for RBBP9 inhibitors; AID 1974; actives 1.1% (n = 300,000); inhibition, % at 5.96 µM; P78417; recombinant GSTO1, activity-based probe fluorescence polarization;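 active = inhibition above the campaign mean inhibition plus 3 SD, cut at about 35% in these data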;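 note: 0% = GSTO1-1 with DMSO and 100% = wells lacking GSTO1-1 enzyme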
Target sequence (P78417 whole entry, looked up): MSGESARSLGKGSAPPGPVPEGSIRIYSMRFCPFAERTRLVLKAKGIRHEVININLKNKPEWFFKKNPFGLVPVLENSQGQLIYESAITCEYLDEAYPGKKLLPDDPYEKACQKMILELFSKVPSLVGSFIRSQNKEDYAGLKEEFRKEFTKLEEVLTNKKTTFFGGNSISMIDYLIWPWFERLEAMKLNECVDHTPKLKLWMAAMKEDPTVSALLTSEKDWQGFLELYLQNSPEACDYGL
PME-1 inh = blocks human protein phosphatase methylesterase 1. Q9Y570. recombinant PME-1, FP-Rh probe fluorescence polarization. inhibition, % at 5.9 µM. actives 0.53% (n = 320,000);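 active = inhibition above the campaign mean of all compounds plus 3 SD, cut at about 26% in these data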;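 note: competitive labeling of PME-1 active site by serine hydrolase directed probe; 0% = PME-1 with DMSO and 100% = wells lacking PME-1 enzyme; inhibitors block probe labeling so polarization falls and inhibition rises; many of its hits are not listed in these tables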
PAFAH1B2 inh = inhibitors of human PAFAH1B2; P68402; recombinant PAFAH1B2, FP-rhodamine activity probe, fluorescence polarization; inhibition, % at 3.39 µM; actives 1.2% (n = 340,000); AID 492953;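 active = inhibition above the mean of all tested compounds plus 3 SD, cut at about 24% in these data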;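 note: 0% = enzyme with DMSO and 100% = wells lacking PAFAH1B2; many of its hits are not listed in these tables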
Target sequence (P68402 whole entry, looked up): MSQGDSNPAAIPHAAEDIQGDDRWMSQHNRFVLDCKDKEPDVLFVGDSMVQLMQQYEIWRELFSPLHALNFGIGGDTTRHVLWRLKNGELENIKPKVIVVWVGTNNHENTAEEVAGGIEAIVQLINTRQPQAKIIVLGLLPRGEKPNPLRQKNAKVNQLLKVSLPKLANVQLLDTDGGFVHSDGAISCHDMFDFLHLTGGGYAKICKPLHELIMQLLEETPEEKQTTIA
PAFAH1B3 inh = inhibitors of human PAFAH1B3; Q15102; recombinant PAFAH1B3, FP-rhodamine probe, fluorescence polarization; inhibition, % at 3.39 µM; actives 0.28% (n = 340,000);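 active = inhibition above the screen-wide average of all tested compounds plus 3 SD, cut at about 25% in these data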;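 note: 0% = enzyme with DMSO only and 100% = wells lacking PAFAH1B3 protein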
Target sequence (Q15102 whole entry, looked up): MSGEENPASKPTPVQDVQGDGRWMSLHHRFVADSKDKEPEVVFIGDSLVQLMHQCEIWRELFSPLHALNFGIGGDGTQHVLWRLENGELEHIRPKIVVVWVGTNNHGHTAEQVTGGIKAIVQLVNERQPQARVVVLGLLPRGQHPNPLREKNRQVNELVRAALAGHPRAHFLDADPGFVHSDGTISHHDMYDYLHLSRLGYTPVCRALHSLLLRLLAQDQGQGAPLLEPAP
LYPLA2 counter = LYPLA2 (human) inhibition in PME1 counter-screen. O95372. actives 0.38% (n = 320,000). recombinant LYPLA2, FP-Rh probe fluorescence polarization. inhibition, % at 5.9 µM;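 active = inhibition above the screen-wide mean plus 3 SD, limit set per campaign, cut at about 26% in these data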;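 note: 0% = LYPLA2 with DMSO and 100% = wells lacking LYPLA2 enzyme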
Numbers without * were called inactive; x = not tested or not shown. The list is partial; rates above refer to the full screens.

[1] O=C(NCc1ccc(F)cc1)c1ccc(CS(=O)(=O)Cc2ccccc2F)o1
[2] O=C(c1ccco1)N1CCN(C(=O)c2ccc(COc3ccc(Cl)cc3Cl)o2)CC1
[3] Cc1ccc(S(=O)(=O)Nc2ccc(F)cc2)cc1C(=O)N1CCOCC1
[4] Cc1ccc(C)c(NS(=O)(=O)c2ccc(OCC(=O)N3CCOCC3)cc2)c1
[5] O=C(O)c1cccc(S(=O)(=O)Nc2ccc(OCc3ccccc3)cc2)c1
[6] CCOc1ccc(NS(=O)(=O)c2ccc3c(c2)CCN3C(=O)CCC(=O)O)cc1
[7] CCN(c1ccccc1)S(=O)(=O)c1ccc(OC)c(NC(=O)c2cc(F)c(F)c(F)c2F)c1
[8] COc1ccc(NC(=O)CCC(=O)c2cccs2)cc1S(=O)(=O)Nc1ccc(Cl)cc1

Screen / compound no.	1	2	3	4	5	6	7	8
PAD4 inh	-2	-5	3	-3	-2	-3	-6	-2
PREPL inhibitor	-11	-27	3	10	-4	-1	5	-10
LYPLA1 inh	-1	1	x	2	9	4	x	-10
GSTO1 inh	4	8	x	5	23	26	x	-5
PME-1 inh	2	7	x	8	-2	-7	x	-6
PAFAH1B2 inh	11	1	8	4	58*	0	-1	2
PAFAH1B3 inh	5	-3	6	9	4	6	8	-3
LYPLA2 counter	1	6	x	-1	7	1	x	-20

[9] O=C(CCC(=O)c1ccc(F)cc1)Nc1cccc(S(=O)(=O)Nc2cccc(Cl)c2)c1
[10] CS(=O)(=O)c1ccc(-c2cc(Br)sc2-c2ccc(F)cc2)cc1
[11] CC(C)Oc1cccc(C(=O)C2CCCN(C(=O)c3ccc4c(c3)OCO4)C2)c1 (stereo not drawn)
[12] COc1ccc(OC)c(S(=O)(=O)Nc2ccc(Oc3ccccc3)cc2)c1
[13] CC(C)(CN1CCCC1)NS(=O)(=O)c1ccc(Cl)cc1
[14] CC1CCC(NC(=O)c2ccc(CS(=O)(=O)Cc3ccccc3F)o2)CC1 (stereo not drawn)
[15] CCOc1ccc(NS(=O)(=O)c2ccc(Cl)c(C(=O)N(C)Cc3cccnc3)c2)cc1
[16] CC1=C(C(=O)OCC2CCCO2)C(c2ccccc2OC(C)C)C2=C(CC(c3ccco3)CC2=O)N1 (stereo not drawn)

Screen / compound no.	9	10	11	12	13	14	15	16
PAD4 inh	-5	3	3	-5	1	3	7	-1
PREPL inhibitor	9	2	-4	-7	19	11	12	23
LYPLA1 inh	-16	-4	1	-9	-2	-5	1	-3
GSTO1 inh	-7	1	-2	-1	3	1	x	8
PME-1 inh	-11	-10	11	-5	3	-5	3	0
PAFAH1B2 inh	3	x	-1	-4	4	4	4	1
PAFAH1B3 inh	2	x	-1	-7	-1	3	6	0
LYPLA2 counter	-20	-13	3	-9	6	-4	4	2

[17] CC(OC(=O)c1cc(=O)[nH]c2ccccc12)C(=O)c1ccccc1 (stereo not drawn)
[18] Cc1ccc(S(=O)(=O)N2CCN(C(=O)COC(=O)Cc3ccc(Cl)cc3)CC2)c(C)c1
[19] NS(=O)(=O)c1cccc(Nc2nc3ccccc3nc2NS(=O)(=O)c2ccc(Cl)cc2)c1
[20] N#CC1=C(SCc2ccccc2)NC(=O)CC1c1ccccc1 (stereo not drawn)
[21] CCOC(=O)c1ccc(S(=O)(=O)Nc2cc(S(=O)(=O)Nc3ccc(OC)cc3)ccc2O)cc1
[22] Cc1ccc(S(=O)(=O)Nc2nc3ccc(N)cc3s2)cc1
[23] CCCCCCOc1ccc(OCC(O)CN2C(=O)NC(C)(C)C2=O)cc1 (stereo not drawn)
[24] Cc1c(C)c2c(OCC(=O)NCc3ccncc3)cc3c(c2oc1=O)CCC(C)(C)O3

Screen / compound no.	17	18	19	20	21	22	23	24
PAD4 inh	1	1	-9	2	0	1	0	-4
PREPL inhibitor	-6	20	16	0	3	7	-4	3
LYPLA1 inh	4	0	x	2	x	-4	4	-3
GSTO1 inh	-6	x	x	-4	x	16	2	-1
PME-1 inh	1	9	x	8	x	2	0	-2
PAFAH1B2 inh	x	5	15	8	8	5	3	4
PAFAH1B3 inh	x	11	7	-5	14	16	-4	4
LYPLA2 counter	24	3	x	2	x	1	14	-1

[25] Cc1cc(Cl)ccc1Oc1cccc(C(=O)/C(C#N)=C/N(C)C)c1
[26] Cc1ccc(S(=O)(=O)N2CCN(C(=O)COc3ccc(Br)cc3)CC2)cc1
[27] CCOc1ccccc1CN1CCNC(=O)C1CC(=O)NC1CCCCCCC1 (stereo not drawn)
[28] Cc1cccc(Cc2cnc(N3C(=N)SC(c4ccccc4)C3=O)s2)c1 (stereo not drawn)
[29] O=C(C1COc2ccccc2O1)N1CCCC1 (stereo not drawn)
[30] CCOc1ccc(NS(=O)(=O)c2ccc(NC(=S)NC(C)=O)cc2)cc1
[31] O=C(COC(=O)c1cccc(Cl)c1Cl)NC1CCCC1
[32] O=C(OCC(=O)c1ccco1)c1ccc2ncsc2c1

Screen / compound no.	25	26	27	28	29	30	31	32
PAD4 inh	1	-2	-9	-5	-1	-2	-5	2
PREPL inhibitor	2	0	15	28	1	-5	6	1
LYPLA1 inh	2	-1	0	-5	4	-1	-2	-4
GSTO1 inh	-36	x	-8	-8	4	13	5	-1
PME-1 inh	0	8	3	-5	0	14	2	-6
PAFAH1B2 inh	23	6	-1	0	5	1	0	2
PAFAH1B3 inh	-2	1	9	0	1	-1	4	0
LYPLA2 counter	6	5	-1	-6	3	-1	-7	-1

Of the compounds above, 2 contain a COOH group.
[5] O=C(O)c1cccc(S(=O)(=O)Nc2ccc(OCc3ccccc3)cc2)c1
[6] CCOc1ccc(NS(=O)(=O)c2ccc3c(c2)CCN3C(=O)CCC(=O)O)cc1

Screen / compound no.	5	6
PAD4 inh	-2	-3
PREPL inhibitor	-4	-1
LYPLA1 inh	9	4
GSTO1 inh	23	26
PME-1 inh	-2	-7
PAFAH1B2 inh	58*	0
PAFAH1B3 inh	4	6
LYPLA2 counter	7	1

(listing goes on)
[33] COc1ccc(NS(=O)(=O)c2ccc(NS(=O)(=O)c3cccs3)cc2)cc1
[34] O=C(Nc1ccc(S(=O)(=O)Nc2ccc(Cl)cc2)cc1)C1CCCO1 (stereo not drawn)
[35] CCCCC1=CC2=CC(=O)C(C)(OC(=O)c3cccs3)C(=O)C2=CO1 (stereo not drawn)
[36] CC(NC(=O)c1cccc(Cn2cc([N+](=O)[O-])cn2)c1)c1ccc(C(C)(C)C)cc1 (stereo not drawn)
[37] O=C(O)COc1ccccc1/C=N/NC(=O)COc1ccc(-c2ccccc2)cc1
[38] CCc1ccc(NS(=O)(=O)c2ccc3[nH]cc(C(=O)N4CCc5ccccc54)c(=O)c3c2)cc1
[39] O=C(COC(=O)c1sc2ccccc2c1Cl)Nc1ncc(Cl)cc1Cl
[40] COC(=O)c1cc(S(=O)(=O)Nc2cccc(C)c2C)cn1C

Screen / compound no.	33	34	35	36	37	38	39	40
PAD4 inh	0	-1	-2	1	-4	-1	-3	3
PREPL inhibitor	-7	-8	6	18	-23	-19	6	-2
LYPLA1 inh	4	0	0	-10	4	-13	-6	-1
GSTO1 inh	6	15	21	-8	16	24	-8	4
PME-1 inh	-1	0	0	-8	-19	-17	0	3
PAFAH1B2 inh	4	7	3	2	1	-4	-8	-4
PAFAH1B3 inh	12	8	4	0	2	-4	3	7
LYPLA2 counter	10	0	0	-19	1	-27	-9	7

[41] CCC(NC(=O)COc1cc2c(c3oc(=O)c(C)c(C)c13)CCC(C)(C)O2)C(=O)O (stereo not drawn)
[42] O=C(CCCCCN1C(=O)CCC1=O)Nc1ccc(Cl)c(C(F)(F)F)c1
[43] CCN(c1ccccc1)S(=O)(=O)c1ccc(OCC(=O)N2CCCC2)cc1
[44] Cc1cc(=O)n2nc(-c3ccccc3)sc2c1C#N
[45] CCS(=O)(=O)c1ccc(O)c(NC(=O)Nc2cccc3ccccc23)c1
[46] COc1ccc(CCN2C(=O)CS/C2=N\NC(=O)c2ccc(C(C)(C)C)cc2)cc1OC
[47] NC(=O)C1CCN(C(=O)c2cc(S(=O)(=O)N3CCOCC3)ccc2Cl)CC1
[48] CCCOc1ccc(C(=O)c2nc3c(n2O)CCCCC3)cc1

Screen / compound no.	41	42	43	44	45	46	47	48
PAD4 inh	2	-6	-1	-5	-4	-2	-3	-1
PREPL inhibitor	2	13	-1	2	8	9	1	18
LYPLA1 inh	5	0	-2	3	0	1	-5	-2
GSTO1 inh	-4	-4	x	-3	-1	-33	3	17
PME-1 inh	1	5	-1	-6	2	6	3	-10
PAFAH1B2 inh	10	1	4	2	3	-3	-6	2
PAFAH1B3 inh	9	-3	-1	11	6	4	12	2
LYPLA2 counter	-2	1	-3	-4	2	3	1	10

[49] Cc1ccc(-c2cc(-c3ccccc3Cl)c(C#N)c(N)n2)o1
[50] COc1ccc(C(=O)O)cc1S(=O)(=O)Nc1cccc(C)c1
[51] O=C(COC(=O)Cc1ccsc1)NCC1CCCCC1
[52] COc1ccccc1CCC(=O)OCC(=O)Nc1c(C)nn(-c2ccccc2)c1C
[53] CC(=O)C(C)Oc1ccc2c3c(c(=O)oc2c1C)CCCC3 (stereo not drawn)
[54] CC(OC(=O)c1ccc(Cl)c(S(=O)(=O)Nc2ccc(F)cc2)c1)C(=O)NC(N)=O (stereo not drawn)
[55] Cc1ccc(-c2n[nH]c(=O)c3ccccc23)cc1S(=O)(=O)Nc1ccccc1

Screen / compound no.	49	50	51	52	53	54	55
PAD4 inh	-15	3	2	3	-2	1	0
PREPL inhibitor	18	-11	-2	-2	-5	-2	2
LYPLA1 inh	-2	1	-1	0	-2	6	-5
GSTO1 inh	1	13	7	5	5	1	-23
PME-1 inh	4	-3	6	1	2	6	12
PAFAH1B2 inh	4	0	9	-3	-6	6	6
PAFAH1B3 inh	4	-4	-1	3	2	1	-4
LYPLA2 counter	2	9	-9	4	-3	-1	-5

An excerpt from above in order of SMILES length, smallest number first:
[48] CCCOc1ccc(C(=O)c2nc3c(n2O)CCCCC3)cc1
[53] CC(=O)C(C)Oc1ccc2c3c(c(=O)oc2c1C)CCCC3 (stereo not drawn)
[52] COc1ccccc1CCC(=O)OCC(=O)Nc1c(C)nn(-c2ccccc2)c1C
[47] NC(=O)C1CCN(C(=O)c2cc(S(=O)(=O)N3CCOCC3)ccc2Cl)CC1
[55] Cc1ccc(-c2n[nH]c(=O)c3ccccc23)cc1S(=O)(=O)Nc1ccccc1
[46] COc1ccc(CCN2C(=O)CS/C2=N\NC(=O)c2ccc(C(C)(C)C)cc2)cc1OC
[54] CC(OC(=O)c1ccc(Cl)c(S(=O)(=O)Nc2ccc(F)cc2)c1)C(=O)NC(N)=O (stereo not drawn)

Screen / compound no.	48	53	52	47	55	46	54
PAD4 inh	-1	-2	3	-3	0	-2	1
PREPL inhibitor	18	-5	-2	1	2	9	-2
LYPLA1 inh	-2	-2	0	-5	-5	1	6
GSTO1 inh	17	5	5	3	-23	-33	1
PME-1 inh	-10	2	1	3	12	6	6
PAFAH1B2 inh	2	-6	-3	-6	6	-3	6
PAFAH1B3 inh	2	2	3	12	-4	4	1
LYPLA2 counter	10	-3	4	1	-5	3	-1

High-throughput results (PubChem)
